Bioassay records: PubChem BioAssay, several laboratories
PKD1 inh: PKD1 (human) kinase inhibition. AID 797. PKD1 kinase fluorescence polarization assay. actives 0.056% (n = 200,000). inhibition, %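 (about 10 µM by stock and volumes)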;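 active = inhibition of 50% or more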;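 note: controls were vehicle for no effect and a reference inhibitor for full effect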
RGS16-Gao HTS: modulates binding between human RGS16 and Galphao; O15492+P09471; bead-based flow cytometry RGS16-Galphao binding, fluorescence; actives lie on both sides; binding response (% of control), % at 10 µM; actives 0.38% (n = 220,000);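 active = below 25% or above 175%, edge rows of some plates excepted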;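 note: Galphao activated by GDP with aluminum fluoride before binding; 100% = wells without compound and 0% = beads without RGS; some results beyond the cut were filed as inactive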
Target sequence (O15492 whole entry, looked up): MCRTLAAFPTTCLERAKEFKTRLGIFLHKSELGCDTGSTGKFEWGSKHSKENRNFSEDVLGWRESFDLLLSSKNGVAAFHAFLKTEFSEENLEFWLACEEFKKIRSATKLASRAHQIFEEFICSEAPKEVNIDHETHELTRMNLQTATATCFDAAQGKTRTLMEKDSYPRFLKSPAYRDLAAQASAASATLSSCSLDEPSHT
Target sequence (P09471 whole entry, looked up): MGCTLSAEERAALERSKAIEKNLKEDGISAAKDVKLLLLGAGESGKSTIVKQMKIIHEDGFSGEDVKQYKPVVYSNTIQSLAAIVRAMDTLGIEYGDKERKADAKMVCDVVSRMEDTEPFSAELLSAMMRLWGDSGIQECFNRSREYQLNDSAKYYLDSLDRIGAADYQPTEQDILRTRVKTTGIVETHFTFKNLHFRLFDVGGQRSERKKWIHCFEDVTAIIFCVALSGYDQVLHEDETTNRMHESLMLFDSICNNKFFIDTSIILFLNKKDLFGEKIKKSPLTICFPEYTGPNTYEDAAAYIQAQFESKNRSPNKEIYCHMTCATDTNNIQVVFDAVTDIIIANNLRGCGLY
GALR2 ag: agonists of human galanin receptor 2 (GALR2); O43603; activation, %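 (tested at 5 µM)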; actives 0.48% (n = 140,000); GALR2-expressing cells, agonist activation read-out; AID 803;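 active = above mean plus 3 SD of all compounds, about 5% in these data, not always enough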;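 note: 0% = vehicle buffer wells and 100% = reference agonist at full effect; tested in CHO reporter cells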
Target sequence (O43603 whole entry, looked up): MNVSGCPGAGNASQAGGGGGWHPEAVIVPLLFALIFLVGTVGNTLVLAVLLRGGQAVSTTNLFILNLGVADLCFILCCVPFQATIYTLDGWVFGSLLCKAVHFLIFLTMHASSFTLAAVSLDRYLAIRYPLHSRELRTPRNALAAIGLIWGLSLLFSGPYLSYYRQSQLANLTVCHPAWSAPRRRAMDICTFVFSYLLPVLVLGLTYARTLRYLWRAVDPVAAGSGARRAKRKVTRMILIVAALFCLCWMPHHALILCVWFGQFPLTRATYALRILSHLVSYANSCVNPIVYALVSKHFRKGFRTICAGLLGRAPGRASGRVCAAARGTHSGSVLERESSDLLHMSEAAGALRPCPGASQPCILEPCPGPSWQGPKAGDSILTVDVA
Insulin prom inh: TRM-6 insulin promoter activity inhibition. actives 0.9% (n = 130,000). TRM-6 cells (human fetal islet line), insulin promoter-eGFP reporter, imaging; reporter expression induced with tamoxifen. inhibition, % at 2 µM;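 active = inhibition above the mean plus 3 SD, with well images judged a real hit on visual review, cut at about 60% in these data, passing the limit was not always enough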
HSV augment: increases HSV replication in cells; HSV replication augmentation in cells, fold increase; maximum fold increase; actives 0.005% (n = 220,000); AID 1956;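 active = peak rise of 1.5-fold or more in the series; tested in PC3 cells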;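 note: first round at 10 µM; read as green reporter fluorescence; hits show the peak of a series up to 25 µM; 1 = signal of infected wells without compound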
Insulin prom inh cell count: also measured in Insulin prom inh; calls as there; normalized cell count, %; measured here: cell count, toxicity; reference of the scale not given here;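 cells exposed to compound for 48 h; stained nuclei by imaging scaled within each plate; lower means fewer cells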
HSV augment primary fold: second read-out of HSV augment, no call of its own (marks repeat the call); fold increase; compound at 10 µM; measured here: primary screen fold increase 10 uM; tested in PC3 cells;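 GFP signal in the first replicate; 1 = infected wells without compound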
Numbers without * were called inactive; i = inactive; nt = not tested or not shown. Rows are unselected; about 1.3% have a hit in one of these screens.

SMILES	PKD1 inh	RGS16-Gao HTS	GALR2 ag	Insulin prom inh	Insulin prom inh cell count	HSV augment	HSV augment primary fold
Cc1cc(Cl)ccc1OC(C)C(=O)NCCc1ccc2c(c1)OCCO2 (stereo not drawn)	-6	149	-1.4	20	71	i	0.95
C=CCN(c1ccccc1)S(=O)(=O)c1ccc(Cl)c(C(=O)OCC(=O)N(C)C2CCS(=O)(=O)C2)c1 (stereo not drawn)	2	89	nt	-61	76	i	0.96
CCC(=O)Nc1ccc(C(=O)Nc2cc(C)on2)cc1	-4	100	-0.4	-24	165	i	0.96
CCOC(=O)N1CCN(C(=O)CN(Cc2ccc(Cl)cc2)S(=O)(=O)c2ccccc2)CC1	1	100	-0.8	12	66	i	1.1
Cc1nc2c3c4c(sc3n3c(SCC(=O)NCc5ccco5)nnc3n2n1)COC(C)(C)C4	-5	97	0.2	nt	nt	i	0.84
Cc1ccccc1OCC(=O)OCn1nnc2ccccc2c1=O	nt	99	nt	nt	nt	i	1
O=C(COc1ccccc1)Nc1nc2ccccc2[nH]1	2	101	0.6	34	169	i	1.1
Cn1ncc(N=Cc2ccc([N+](=O)[O-])cc2)c1C(=O)Nc1ccccc1	-1	95	nt	nt	nt	i	0.93
CCCn1c(N)nc2ccccc21	3	369	0.3	-14	48	i	0.95
Cc1nn(Cc2ccc(Cl)cc2Cl)c(C)c1NC(=O)C1C2CCC(O2)C1C(=O)O (stereo not drawn)	3	108	-1.2	-45	92	i	0.92
NS(=O)(=O)c1ccc(CNC(=O)c2ccc(S(=O)(=O)C(F)F)cc2)cc1	nt	96	nt	nt	nt	i	0.86
Cc1ccc(NC(=O)CNC2CCS(=O)(=O)C2)cc1C (stereo not drawn)	-1	99	nt	3	72	i	0.88
Cc1cc(C)c(C#N)c(SCc2cn3c(C)cccc3n2)n1	-6	94	0.1	0	46	i	0.82
O=C(NC(Nc1ccc(F)cc1)(C(F)(F)F)C(F)(F)F)c1cccnc1	5	102	-0.9	39	122	i	0.97
Cc1nc(NC(=O)c2ccccc2)sc1-c1csc(N)n1	-3	102	-2.0	21	152	i	0.87
COC(=O)C(C)NS(=O)(=O)c1ccc(NC(C)=O)cc1 (stereo not drawn)	5	104	-0.9	nt	nt	i	0.89
Cc1csc(NC(=O)Nc2ccccc2[N+](=O)[O-])n1	2	106	nt	30	176	i	0.93
Cc1ccccc1NC(=S)NNc1ncc(C(F)(F)F)cc1Cl	-3	102	-1.7	nt	nt	i	0.99
CCn1nc(C(=O)OCC(=O)Nc2ncc(Cl)c(C)c2Cl)c2ccccc2c1=O	4	109	-1.9	35	90	i	1.1
CC(=O)c1cccc(NC(=O)c2ccc(NS(=O)(=O)c3c(C)noc3C)cc2)c1	10	99	-3.2	nt	nt	i	1
CSc1ccccc1NC(=O)c1ccccn1	-3	98	nt	nt	nt	i	1.1
S=c1[nH]nc(-c2cc(-c3ccsc3)n[nH]2)n1-c1ccccc1	nt	99	nt	nt	nt	i	0.97
COc1ccc([N+](=O)[O-])cc1N(CC(=O)NC(C(C)C)C(C)C)S(C)(=O)=O	8	118	nt	nt	nt	i	0.94
Cc1c(CCC(C)C)c(-n2ccnc2C)n2c(nc3ccccc32)c1C#N	-4	92	0.5	0	90	i	1.1
COC(=O)c1coc(-c2ccc(C)cc2)c1C(=O)OC	7	99	-0.7	nt	nt	i	1
C#CCO[C@@H]1C[C@H](n2cnc3c(NC(=O)c4ccccc4)ncnc32)O[C@@H]1CO	nt	100	nt	nt	nt	i	0.99
CCOC(=O)C1=C(C)NC(=O)NC1c1ccc(OC(=O)c2ccco2)c(OC)c1 (stereo not drawn)	-12	98	-1.1	nt	nt	nt	nt
CC(C)(C)C1CCC(=O)C(C2(O)C(=O)Nc3ccccc32)C1 (stereo not drawn)	2	101	-2.8	-300	52	i	0.89
COc1ccccc1OCCNC(=O)/C=C/c1ccc([N+](=O)[O-])cc1	0	108	-1.9	38	134	i	1.1
CCOC(=O)C1=C(N)N2C(=O)C(C)SC2=C(C(=O)OCC)C1c1cc(OC)c(OC)c(OC)c1 (stereo not drawn)	nt	101	nt	nt	nt	i	0.81
CCN(CC(O)Cn1c2ccccc2c2ccccc21)S(=O)(=O)c1ccc(C)cc1 (stereo not drawn)	-5	103	-2.4	-29	94	i	0.85
COC(=O)C(=O)/C=C(\O)c1ccc(C)cc1	-11	104	-2.5	-7	61	nt	nt
Cc1ccc(CN2CC(C(=O)Nc3cccc(S(=O)(=O)N4CCCCC4)c3)CC2=O)cc1 (stereo not drawn)	1	89	-2.5	11	118	i	0.93
COc1nc(NCCN2CCOCC2)nc(Nc2ccccc2)n1	-5	164	-1.1	-20	52	i	0.88
CC(C)C(c1nnnn1C(C)(C)C)N1CCC(Cc2ccccc2)CC1 (stereo not drawn)	15	102	-0.5	-31	91	i	0.97
O=C(CNC(=O)c1ccccc1F)OCc1csc(-c2ccccc2)n1	4	102	nt	nt	nt	i	0.87
Cc1cc(C)c2sc(C)[n+](CCCS(=O)(=O)[O-])c2c1	-3	96	nt	nt	nt	i	0.98
Cc1cc(=O)n2[nH]c(N)c(N=Nc3ccccc3)c2n1	7	103	-0.8	3	111	i	0.96
CN1CCN(C(=O)CCC(=O)O)CC1	nt	95	nt	nt	nt	i	0.92
O=C1NC(=S)CN1c1ccccc1	nt	98	nt	nt	nt	i	0.87
O=C(COC(=O)COc1ccccc1[N+](=O)[O-])Nc1cccc(Br)c1	-8	102	0.1	-60	69	i	0.95
Cc1nc(C)c(C(=O)C2=C(O)C(=O)N(CCCn3ccnc3)C2c2ccccc2)s1 (stereo not drawn)	-9	103	-2.4	-30	151	i	0.92
CCC(C)N1CCN(S(=O)(=O)c2ccc(NC(C)=O)cc2)CC1 (stereo not drawn)	-3	135	nt	0	87	i	1.1
CC12CCC(C(=O)N(CC3CO3)C1=O)C2(C)C (stereo not drawn)	-3	107	nt	nt	nt	i	0.96
CC(=O)Oc1ccc2oc(C)c(C(=O)N3CCOCC3)c2c1	5	97	-0.5	nt	nt	i	0.91
O=C(Nc1ccccc1OC(F)(F)F)c1ccc([N+](=O)[O-])cc1	-3	127	nt	-29	89	i	1
Nc1nonc1-c1noc(-c2ccccc2Br)n1	-2	99	-3.5	50	142	i	0.89
Cc1cc(C)cc(C(=O)NCCCc2ccccc2)c1	-1	104	nt	3	112	i	0.91
COc1ccc2c(c1)O/C(=C\c1ccco1)C2=O	nt	100	nt	nt	nt	i	1.1
COC(=O)c1cnn(-c2ccc(F)cc2F)c1/C=N/NC(=S)NC(C)(C)C	nt	101	nt	nt	nt	i	1.2
N/C(Cc1ccc(Cl)cc1)=N\OC(=O)c1ccccc1	-5	100	-1.2	-273	27	i	0.83
CCCN(Cc1cc2ccc(C)cc2[nH]c1=O)C(=O)c1ccccn1	9	87	-3.7	nt	nt	i	0.92
Cc1cccc2sc(NC(=O)C3CCN(S(=O)(=O)c4cc([N+](=O)[O-])ccc4Cl)CC3)nc12	-1	104	-1.2	-67	138	i	1
CCCn1c(SCC(=O)Nc2cccc(C)n2)nnc1-c1ccco1	-3	97	-1.4	16	73	nt	nt
Cc1ccc(NC(=O)CSc2nc3c(c(=O)[nH]2)CCC3)cc1C	-10	113	-0.4	-36	138	i	1
COc1ccc2nc(NC3=NCCC3)sc2c1	1	96	-1.8	43	96	i	0.93
CN(C(=O)COC(=O)c1cncc(Br)c1)C1CCS(=O)(=O)C1 (stereo not drawn)	-3	108	nt	67	78	i	1
COc1cccc(OC)c1C(=O)Nn1c(-c2cccs2)nc2ccccc2c1=O	4	127	-0.5	0	125	i	1.1
Cc1c(Cl)cccc1NC(CC(=O)c1ccccc1)C(=O)OCC(=O)c1cccs1 (stereo not drawn)	-4	99	-0.8	-3	78	i	0.84
CC12CN3CC(C)(CN(C1)C3c1ccc3c(c1)OCO3)C2O (stereo not drawn)	nt	99	nt	nt	nt	i	1
Other structures
SMILES	PKD1 inh	RGS16-Gao HTS	GALR2 ag	Insulin prom inh	Insulin prom inh cell count	HSV augment	HSV augment primary fold
CCn1c2ccccc2c2cc(NC(=O)C(C)Oc3ccc(OC)cc3)ccc21 (stereo not drawn)	-4	106	-1.7	40	50	i	0.86
COc1ccc(C(c2nnnn2C2CCCC2)N2CCN(C3CCCC3)CC2)cc1OC (stereo not drawn)	-1	100	-0.3	21	118	i	0.91
Cc1cccc(NC(=S)N(CCN(C)C)C(C)c2cccnc2)c1 (stereo not drawn)	5	102	nt	-36	72	i	0.85
OCCCNCc1ccc(-c2ccccc2)cc1	5	91	nt	nt	nt	i	0.85
Oc1ccccc1C(=S)N1CCCCCC1	-5	98	-1.2	13	68	i	0.96
CC(C)Cc1nc(N2CCOCC2)c(C#N)c2c1COC(C)(C)C2	-9	100	-2.7	20	85	i	0.93
Cc1nc2ccccc2n1CC(=O)N/N=C\c1ccccn1	-10	103	-1.1	nt	nt	i	0.8
CCOC(=O)C(NC(=O)c1ccccc1)(Nc1nnc(C)s1)C(F)(F)F (stereo not drawn)	-3	99	-1.4	-81	104	i	1.1
CCOC(=O)CN1N=C(/C=C/c2ccccc2)CCC1=O	-4	nt	-1.0	nt	nt	i	0.91
CCOC(=O)CC1=Nc2ccccc2NC(=O)C1	5	98	-4.8	21	54	i	0.9
O=[N+]([O-])c1cnc(Sc2ccncn2)s1	nt	97	nt	nt	nt	i	0.64
CC(=O)Oc1ccc2cc(-c3nc4ccccc4n3C)c(=O)oc2c1	7	96	23*	-91	107	i	0.98

3 entries from above, as labelled records:
CCn1c2ccccc2c2cc(NC(=O)C(C)Oc3ccc(OC)cc3)ccc21 (stereo not drawn)
  PKD1 inh: -4	RGS16-Gao HTS: 106	GALR2 ag: -1.7	Insulin prom inh: 40	Insulin prom inh cell count: 50	HSV augment: i	HSV augment primary fold: 0.86

Cc1cccc(NC(=S)N(CCN(C)C)C(C)c2cccnc2)c1 (stereo not drawn)
  PKD1 inh: 5	RGS16-Gao HTS: 102	GALR2 ag: nt	Insulin prom inh: -36	Insulin prom inh cell count: 72	HSV augment: i	HSV augment primary fold: 0.85

CCOC(=O)CC1=Nc2ccccc2NC(=O)C1
  PKD1 inh: 5	RGS16-Gao HTS: 98	GALR2 ag: -4.8	Insulin prom inh: 21	Insulin prom inh cell count: 54	HSV augment: i	HSV augment primary fold: 0.9

Next entries:
SMILES	PKD1 inh	RGS16-Gao HTS	GALR2 ag	Insulin prom inh	Insulin prom inh cell count	HSV augment	HSV augment primary fold
Cc1cc(C(=O)CN2C(=O)C(=O)N(Cc3ccccc3)C2=O)c(C)n1-c1ccccc1F	-6	80	nt	27	108	i	0.92
COc1cccc(C(=O)NCc2ccc(-c3nc4ccccc4s3)cc2)c1	-1	104	0.2	30	114	i	0.85
Cc1ccccc1NS(=O)(=O)c1ccc(OCC(=O)N2CCCCC2)cc1	-5	109	-1.1	29	86	i	1
CCCCNC(=O)CCn1c(=O)c2ccccc2n(Cc2ccc(Cl)cc2)c1=O	-17	76	-1.2	-34	64	i	1.1
[N-]=[N+]=CC(=O)CCCN1C(=O)c2ccccc2C1=O	0	107	-0.1	-33	97	i	0.98
CNC(=O)/C(C#N)=C1/SC(Cc2ccc(F)cc2)C(=O)N1c1ccccc1 (stereo not drawn)	nt	103	nt	nt	nt	i	1.1
COc1ccc(NC(=O)CSc2nnc(Cc3cccs3)n2-c2ccc(C)cc2)cc1	-2	98	0.1	-6	114	i	0.96
N[C@@H](Cc1ccc(O)cc1)c1nnc([C@H](CCC(=O)O)NC(=O)C2CCNCC2)o1	-1	108	nt	nt	nt	i	1
O=C(c1ccccc1)c1nc[nH]c1C(=O)Nc1ccccn1	14	107	-0.5	nt	nt	i	0.91
Cc1ccc(CNc2nc(C)nc3sc4c(c23)CCC4)cc1	-3	103	-1.8	14	120	i	1
CCCCN(C)CCC(=O)Nc1ccc(OC)cc1OC	-7	104	-1.4	-37	52	i	0.79
Cc1ccc(NC(=S)N2CCCN(Cc3ccc(F)cc3)C2)c(C)c1	-4	94	nt	-33	95	i	0.77
Cc1[nH]c2ccc3ncccc3c2c1C	-3	92	1.0	39	106	i	0.85
O=C(CN1CCN(c2ccccc2F)CC1)Nc1ccccc1F	-6	100	-1.1	-267	99	i	0.91
Cc1nn(-c2cc(C(F)(F)F)ccn2)c(=O)o1	nt	101	nt	nt	nt	i	0.98
O=C(Nc1cccc2cccc(NC(=O)c3ccco3)c12)c1ccco1	-5	91	-0.8	-317	77	i	0.82
O=C(CN1CCSCC1)N/N=C/c1ccccc1F	-2	100	-0.4	nt	nt	i	1.1

Some of these compounds in order of number of heavy atoms, rising.
SMILES	PKD1 inh	RGS16-Gao HTS	GALR2 ag	Insulin prom inh	Insulin prom inh cell count	HSV augment	HSV augment primary fold
CSc1ccccc1NC(=O)c1ccccn1	-3	98	nt	nt	nt	i	1.1
CC(C)Cc1nc(N2CCOCC2)c(C#N)c2c1COC(C)(C)C2	-9	100	-2.7	20	85	i	0.93
Cc1ccc(CN2CC(C(=O)Nc3cccc(S(=O)(=O)N4CCCCC4)c3)CC2=O)cc1 (stereo not drawn)	1	89	-2.5	11	118	i	0.93
